HIV Env fusion – HIV envelope-mediated fusion inhibition; HeLa-JRFL Env/CEM21 cell fusion, luciferase; inhibition, % at 12.3 µM; 360,000 compounds, 1.1% hits;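 active = mean replicate inhibition score of at least 50 and every replicate individually at or above 50; inconclusive = only one of the two criteria met; inactive = mean below 50 and not all replicates reaching 50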;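 also: 0% = plate neutral controls and 100% = maraviroc near 300 nM; one replicate is shown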
Rce1 inh – yeast Ras-converting enzyme inhibition | 290,000 compounds, 0.27% hits | yeast membranes, quenched prenylated peptide cleavage fluorescence | calls only | Q03530;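 active = fall in fluorescence gain of 50% or more versus controls, with final raw signal at or below 3038400; inconclusive = same 50% fall but final raw signal above 3038400; inactive = fall in fluorescence gain under 50%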;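 also: plate controls were neutral control wells for no effect and wells lacking membranes for full effect; tested at 10 µM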
eIF4H inh – inhibitors of RNA binding by human eIF4H. Q15056. eIF4H fluorescence polarization binding assay. inhibition, % at 35 µM. 290,000 compounds, 0.94% hits. AID 2012;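 active = 50% or more with normal probe brightness, or confirmed in later tests; inconclusive = above 50% with abnormal brightness, or retests that disagree; inactive = below 50% or failed in later tests; about a fifth of its hits are not listed in these tables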;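 also: calls also rest on retests at 20 µM and on dose response follow-up; 0% = protein and probe with vehicle and 100% = probe without protein; strong numbers were not always called active; many hits fall short of the cut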
CSC inhib – cancer stem cell inhibition; cancer stem cell-like cells viability, luminescence; inhibition, % at 7.5 µM; 300,000 compounds, 1.1% hits; AID 2717;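 active = mean at 75% or more and at least half the replicates too; inconclusive = mean and replicates disagree; tested in HMLE shEcad cells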;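 also: 0% = median of negative and 100% = median of positive control wells; the first replicate is given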
UUG fidelity – modulators of start codon recognition fidelity in yeast; S. cerevisiae UUG-firefly luciferase reporter, luminescence/redox ratio; activity score, % at 18.7 µM; 350,000 compounds, 0.13% hits;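 active = replicate mean at a twofold rise or more, about +100% in these data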;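 also: firefly luciferase made from a UUG start codon reports start codon fidelity; reporter light over untreated wells divided by growth signal over untreated wells; some hits fall short of that in this replicate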
MT1-MMP act inh – MT1-MMP (human) activation inhibition; 360,000 compounds, 0.061% hits; GFP/RFP ratio change, % at 20 µM; HT1080 RFP-PRO-GFP cells, GFP/RFP ratio fluorescence, overnight; percent of plate control window, DMSO zero; AID 651647;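 active = GFP/RFP ratio change of at least 30% with cell ATP level not reduced by more than half and red fluorescence within 50% of control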; also: strong numbers were not always called active
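Assay system – RFP-PRO-GFP reporter HT1080 cells · Compound dosing – single dose of 20 µM compound, 1% DMSO final · Incubation – overnight compound exposure at 37 °C · Measure – GFP/RFP fluorescence ratio · Benchmarks – DMSO wells and RFP-L50D-GFP cells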
PABP FP inh – blocks human PABP binding to poly(A) RNA. 290,000 compounds, 1% hits. inhibition, % at 35 µM. fluorescence polarization. P11940;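 active = 50% or more with normal probe brightness, or confirmed in later tests; inconclusive = above 50% with abnormal brightness, or retests that disagree; inactive = below 50% or failed in later tests; about a fifth of its hits are not listed in these tables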;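 also: calls also rest on retests at 20 µM and on dose response follow-up; controls were probe without protein and protein plus probe with vehicle; some compounds called inactive have numbers as strong as hits; many hits fall short of the cut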
Target sequence (P11940 whole entry, looked up): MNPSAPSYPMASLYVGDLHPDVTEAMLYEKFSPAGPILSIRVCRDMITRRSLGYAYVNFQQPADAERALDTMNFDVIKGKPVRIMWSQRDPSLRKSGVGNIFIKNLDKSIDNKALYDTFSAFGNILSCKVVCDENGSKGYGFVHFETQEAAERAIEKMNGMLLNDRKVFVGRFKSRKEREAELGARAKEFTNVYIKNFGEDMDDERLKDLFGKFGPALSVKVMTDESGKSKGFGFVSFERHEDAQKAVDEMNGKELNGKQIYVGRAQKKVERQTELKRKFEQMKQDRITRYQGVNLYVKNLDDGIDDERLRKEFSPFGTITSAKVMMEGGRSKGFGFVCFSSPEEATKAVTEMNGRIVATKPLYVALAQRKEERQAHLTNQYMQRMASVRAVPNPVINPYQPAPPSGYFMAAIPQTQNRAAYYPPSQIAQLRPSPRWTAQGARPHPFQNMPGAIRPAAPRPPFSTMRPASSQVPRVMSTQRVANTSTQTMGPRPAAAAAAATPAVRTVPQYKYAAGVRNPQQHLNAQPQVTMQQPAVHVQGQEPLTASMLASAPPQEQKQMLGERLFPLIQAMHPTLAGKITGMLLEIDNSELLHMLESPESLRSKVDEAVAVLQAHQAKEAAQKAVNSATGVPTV
MT1-MMP act inh RFP – recorded beside MT1-MMP act inh, whose call it bears; RFP signal change, %; measured here: RFP expression control read;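 0 = vehicle wells; hits needed this value within 50% of zero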
An asterisk follows results filed as active.

How did CCOP(=O)(OCC)C(Nc1ccc([N+](=O)[O-])cc1)c1ccc(Cl)cc1 (configuration not stated) do in these assays?
HIV Env fusion: 15; Rce1 inh: inactive; eIF4H inh: 2; CSC inhib: 3; UUG fidelity: 8; MT1-MMP act inh: 8; PABP FP inh: 44; MT1-MMP act inh RFP: 5

How did COc1ccc(OCC(=O)Nc2ccc(S(=O)(=O)Nc3cc(C)nc(C)n3)cc2)cc1 do in these assays?
Rce1 inh: inactive; eIF4H inh: -5; CSC inhib: -13; UUG fidelity: -16; MT1-MMP act inh: 0; PABP FP inh: 5; MT1-MMP act inh RFP: 5

Results for O=C(NCCCCc1ccccc1)c1ccc(Br)o1 ?
Rce1 inh: inactive; eIF4H inh: 0; CSC inhib: -4; UUG fidelity: -5; MT1-MMP act inh: 2; PABP FP inh: -7; MT1-MMP act inh RFP: 5

Results for CC1CN(C(=O)c2cccs2)CC(C)O1 (configuration not stated) ?
HIV Env fusion: 12; Rce1 inh: inactive; eIF4H inh: 1; CSC inhib: 1; MT1-MMP act inh: 0; PABP FP inh: -2; MT1-MMP act inh RFP: -2

What do the screens show for `Cc1nn(-c2ccccc2)c(Cl)c1/C=N/NC(=O)OC(C)(C)C`?
HIV Env fusion: 17; Rce1 inh: inactive; eIF4H inh: -16; CSC inhib: -11; UUG fidelity: -4; MT1-MMP act inh: -5; PABP FP inh: -7; MT1-MMP act inh RFP: -2

Results for O=C(NC1=C(Nc2ccc(F)cc2)C(=O)c2ccccc2C1=O)c1ccc(Cl)cc1 ?
HIV Env fusion: -25; Rce1 inh: inactive; eIF4H inh: 2; CSC inhib: 31; MT1-MMP act inh: 9; PABP FP inh: -8; MT1-MMP act inh RFP: 1

What do the screens show for `O=[N+]([O-])c1nc2ccccc2[nH]1`?
HIV Env fusion: -29; UUG fidelity: -16; MT1-MMP act inh: 9; MT1-MMP act inh RFP: -3

Results for CCN(CC(=O)NCc1cccs1)C(=O)COc1cccc(C(F)(F)F)c1 ?
CSC inhib: -6; UUG fidelity: -9; MT1-MMP act inh: 4; MT1-MMP act inh RFP: -2

Results for Cc1ccc(C)c2[nH]c(=O)c(CCNC(=O)Cc3cccs3)cc12 ?
HIV Env fusion: -52; Rce1 inh: inactive; eIF4H inh: 1; CSC inhib: -6; UUG fidelity: -11; MT1-MMP act inh: 2; PABP FP inh: 21; MT1-MMP act inh RFP: 2

What do the screens show for `COC(=O)c1ccc(NC(=O)CSc2nncn2C)cc1`?
Rce1 inh: inactive; eIF4H inh: -7; CSC inhib: 1; MT1-MMP act inh: -3; PABP FP inh: -9; MT1-MMP act inh RFP: 0

How did Cc1nnc2c(-c3ccccc3)nc3ccccc3n12 do in these assays?
Rce1 inh: inactive; eIF4H inh: -4; CSC inhib: -10; UUG fidelity: -22; MT1-MMP act inh: 3; PABP FP inh: 4; MT1-MMP act inh RFP: 3

What do the screens show for `COc1ccc(C(=O)Nc2ccc(NS(=O)(=O)c3ccccc3)cc2)cc1OC`?
HIV Env fusion: 17; Rce1 inh: inactive; eIF4H inh: -1; CSC inhib: -6; UUG fidelity: -10; MT1-MMP act inh: 7; PABP FP inh: 7; MT1-MMP act inh RFP: 5

What do the screens show for `CCCOC(=O)C1NC(=O)N2C(C(=O)OCCC)C(C)(C)S[C@H]12` (some centres not stated)?
HIV Env fusion: 0; Rce1 inh: inactive; CSC inhib: -6; UUG fidelity: -1; MT1-MMP act inh: 5; MT1-MMP act inh RFP: 2

Results for CC(=O)Nc1ccc(CNc2nc(NC(C)C)nc3ccsc23)cc1 ?
HIV Env fusion: -51; UUG fidelity: -19; MT1-MMP act inh: 1; MT1-MMP act inh RFP: -1

How did O=c1c2ccccc2nc2ccc(NCc3cccs3)nn12 do in these assays?
HIV Env fusion: 0; eIF4H inh: 2; CSC inhib: -9; MT1-MMP act inh: -4; PABP FP inh: 9; MT1-MMP act inh RFP: 1

What do the screens show for `COc1ccc(NC(=O)C2CCCN2S(=O)(=O)c2ccc3c(c2)CC(C)N3C(C)=O)cc1OC` (configuration not stated)?
HIV Env fusion: 0; Rce1 inh: inactive; eIF4H inh: 2; CSC inhib: -8; UUG fidelity: 7; MT1-MMP act inh: 1; PABP FP inh: 6; MT1-MMP act inh RFP: 2

What do the screens show for `Cc1ccc2[nH]c(=O)c(C(c3nnnn3Cc3ccccc3)N3CCc4ccccc43)cc2c1` (configuration not stated)?
HIV Env fusion: 9; Rce1 inh: inactive; eIF4H inh: 4; CSC inhib: -6; UUG fidelity: -19; MT1-MMP act inh: -4; PABP FP inh: 35; MT1-MMP act inh RFP: -2

Results for CCc1sc(C(=O)Nc2nc(C)cs2)cc1C ?
HIV Env fusion: -160; Rce1 inh: inactive; eIF4H inh: 9; UUG fidelity: -42; MT1-MMP act inh: -10; PABP FP inh: 6; MT1-MMP act inh RFP: -5

Results for O=C(COC(=O)c1ccc(-c2nnc(-c3ccccc3)o2)cc1)c1ccccc1 ?
HIV Env fusion: 21; Rce1 inh: inactive; eIF4H inh: 2; CSC inhib: 1; UUG fidelity: -4; MT1-MMP act inh: 1; PABP FP inh: -13; MT1-MMP act inh RFP: -1

Results for Cn1cc(/C=C(\NC(=O)c2ccccc2)C(=O)N2CCOCC2)c2ccccc21 ?
HIV Env fusion: 1; Rce1 inh: inactive; eIF4H inh: -11; CSC inhib: -11; UUG fidelity: -2; MT1-MMP act inh: -1; PABP FP inh: -12; MT1-MMP act inh RFP: 5

Results for CCCC1OC23CCCCC2C(C#N)(C#N)C1(C#N)C(=N)O3 (configuration not stated) ?
HIV Env fusion: 9; Rce1 inh: inactive; eIF4H inh: inconclusive; CSC inhib: -5; UUG fidelity: -7; MT1-MMP act inh: -1; PABP FP inh: -13; MT1-MMP act inh RFP: 31

What do the screens show for `COc1cc(S(=O)(=O)N2CCOCC2)ccc1NC(=O)COC(=O)c1cc(OC)c(OC)c(OC)c1`?
CSC inhib: -3; UUG fidelity: -9; MT1-MMP act inh: 8; MT1-MMP act inh RFP: -3

How did O=C(NN1C(=O)c2ccccc2NC1c1ccc([N+](=O)[O-])o1)c1ccc(Br)cc1 (configuration not stated) do in these assays?
HIV Env fusion: 7; Rce1 inh: inactive; eIF4H inh: -4; CSC inhib: -5; MT1-MMP act inh: -2; PABP FP inh: -3; MT1-MMP act inh RFP: 2

Results for Cc1nn(C)c(Cl)c1CN1CCCC(CCC(=O)NCc2ccccc2F)C1 (configuration not stated) ?
HIV Env fusion: 10; Rce1 inh: inactive; eIF4H inh: 20; CSC inhib: -7; MT1-MMP act inh: 0; PABP FP inh: -6; MT1-MMP act inh RFP: 3

Results for O=S(=O)(Nc1c(F)cccc1F)c1ccc(Cl)nc1 ?
HIV Env fusion: -24; CSC inhib: -6; UUG fidelity: -27; MT1-MMP act inh: -1; MT1-MMP act inh RFP: 0

What do the screens show for `CC(C)(C)C(=O)Nc1ccccc1C(=O)NCCCn1ccnc1`?
HIV Env fusion: 3; Rce1 inh: inactive; eIF4H inh: 3; CSC inhib: -4; MT1-MMP act inh: -4; PABP FP inh: -10; MT1-MMP act inh RFP: -1

How did COC(=O)[C@]1(Cc2ccccc2)N[C@H](CN(C)C(=O)Nc2ccc(Cl)cc2)[C@@H]2C(=O)N(Cc3ccccc3)C(=O)[C@@H]21 do in these assays?
HIV Env fusion: -42; UUG fidelity: -6; MT1-MMP act inh: -1; MT1-MMP act inh RFP: -4

How did Cc1ccc(S(=O)(=O)NNC(=O)c2sc(NS(=O)(=O)c3ccccc3)nc2C)cc1 do in these assays?
HIV Env fusion: 6; Rce1 inh: inactive; eIF4H inh: 3; UUG fidelity: 18; MT1-MMP act inh: 0; PABP FP inh: 6; MT1-MMP act inh RFP: 5

Results for Cc1cc(F)ccc1-c1cc(C(=O)NCC2CCCCC2)[nH]n1 ?
HIV Env fusion: 4; UUG fidelity: -12; MT1-MMP act inh: 4; MT1-MMP act inh RFP: -2

What do the screens show for `OCc1ccccc1OCCOc1ccc(Cl)c2cccnc12`?
HIV Env fusion: -54; Rce1 inh: inactive; eIF4H inh: -10; CSC inhib: -12; UUG fidelity: 3; MT1-MMP act inh: 11; PABP FP inh: 4; MT1-MMP act inh RFP: -3

What do the screens show for `CCc1sc(C(=O)NC)cc1Br`?
Rce1 inh: inactive; eIF4H inh: -2; CSC inhib: -2; MT1-MMP act inh: 4; PABP FP inh: 3; MT1-MMP act inh RFP: 6

Results for CCC(C)NC(=O)C1CCN(S(=O)(=O)c2ccc3[nH]c(=O)ccc3c2)CC1 (configuration not stated) ?
HIV Env fusion: 31; Rce1 inh: inactive; eIF4H inh: -15; UUG fidelity: -15; MT1-MMP act inh: 6; PABP FP inh: -2; MT1-MMP act inh RFP: 6

What do the screens show for `COc1cccc2sc(/N=C/N(C)C)nc12`?
HIV Env fusion: -16; Rce1 inh: inactive; eIF4H inh: -6; CSC inhib: 7; UUG fidelity: -14; MT1-MMP act inh: 1; PABP FP inh: -2; MT1-MMP act inh RFP: 2

Results for CN(C)S(=O)(=O)c1cccc(NC(=O)c2cc(=O)[nH]c3ccccc23)c1 ?
HIV Env fusion: 18; Rce1 inh: inactive; eIF4H inh: -3; CSC inhib: 0; MT1-MMP act inh: -6; PABP FP inh: -3; MT1-MMP act inh RFP: 6

How did CC(=O)c1ccc(Nc2nc(C(N)Cc3ccc(Cl)cc3)cs2)cc1 (configuration not stated) do in these assays?
HIV Env fusion: -2; UUG fidelity: -3; MT1-MMP act inh: -7; MT1-MMP act inh RFP: -7

How did CC1CCCC(NC(=O)C2CCN(S(=O)(=O)N3CCC4(CC3)OCCO4)CC2)C1C (configuration not stated) do in these assays?
HIV Env fusion: 7; Rce1 inh: inactive; eIF4H inh: -4; CSC inhib: -9; UUG fidelity: -4; MT1-MMP act inh: -2; PABP FP inh: -13; MT1-MMP act inh RFP: -4

How did CCOC(=O)C1CCN(C(=O)CSc2cc(=O)n(CC)c3ccccc23)CC1 do in these assays?
HIV Env fusion: 21; Rce1 inh: inactive; eIF4H inh: -2; UUG fidelity: -7; MT1-MMP act inh: 0; PABP FP inh: -4; MT1-MMP act inh RFP: -1

How did CS(=O)(=O)N1CCN(C(=O)Cc2ccc([N+](=O)[O-])cc2)CC1 do in these assays?
HIV Env fusion: 9; Rce1 inh: inactive; eIF4H inh: -3; CSC inhib: 3; UUG fidelity: -8; MT1-MMP act inh: 0; PABP FP inh: -5; MT1-MMP act inh RFP: 2

How did COC(=O)c1ccc(Nc2cc(C)nc(-c3ccccc3O)n2)cc1 do in these assays?
Rce1 inh: inactive; eIF4H inh: -3; CSC inhib: 16; UUG fidelity: 8; MT1-MMP act inh: 0; PABP FP inh: 1; MT1-MMP act inh RFP: -2

How did Cc1ccc(NC(=O)c2ccc3c(c2)OCO3)cc1Cl do in these assays?
HIV Env fusion: -155; eIF4H inh: 4; CSC inhib: 8; UUG fidelity: 10; MT1-MMP act inh: 5; PABP FP inh: 6; MT1-MMP act inh RFP: -1

What do the screens show for `O=C(O)CC(Cc1ccc(Cl)cc1)C(=O)NCc1ccccc1` (configuration not stated)?
HIV Env fusion: 8; Rce1 inh: inactive; eIF4H inh: -11; CSC inhib: 1; UUG fidelity: -19; MT1-MMP act inh: 4; PABP FP inh: -11; MT1-MMP act inh RFP: 1

What do the screens show for `CCc1cc(Br)ccc1NC(=S)NCCc1ccccc1`?
HIV Env fusion: 2; Rce1 inh: inactive; eIF4H inh: -9; CSC inhib: 1; UUG fidelity: -25; MT1-MMP act inh: -1; PABP FP inh: 6; MT1-MMP act inh RFP: -1
